Assay outcomes from PubChem BioAssay.
NOMO-1 viab – STK33 inhibitor candidate reducing NOMO-1 cell viability. NOMO-1 AML viability, CellTiter-Glo luminescence, 72 h. inhibition, % (no concentration beside the values). 37,000 compounds, 7.5% hits;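 active means most replicates above 80%; inconclusive means exactly half above 80%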;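 further: wells of about 30 µL received 25 nL stock; 0% = median of vehicle wells and 100% = reference inhibitor level; the first replicate is given; inactives centre near 10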
* = called active by the depositor; ? = inconclusive.

SMILES	NOMO-1 viab
C[C@@H]1CN([C@@H](C)CO)C(=O)c2cc(NC(=O)Nc3ccc(C(F)(F)F)cc3)ccc2O[C@@H]1CN(C)S(C)(=O)=O	2
C[C@@H]1CN([C@H](C)CO)C(=O)Cc2cc(NC(=O)Nc3ccc(F)cc3)ccc2O[C@@H]1CN(C)C	10
Cc1ccc(S(=O)(=O)Nc2cccc3c2O[C@H](CN(C)C(=O)Nc2ccc(C(F)(F)F)cc2)[C@H](C)CN([C@H](C)CO)C3=O)cc1	90*
O=C(Cn1cc(C(=O)c2ccccc2F)c2ccccc21)NCC1CCCO1 (stereo unspecified)	0
Cc1ccc2ccc(S(=O)(=O)NCc3ccccn3)cc2c1	6
C[C@@H]1CN([C@H](C)CO)C(=O)c2cc(NS(=O)(=O)c3ccc(Cl)cc3)ccc2O[C@H]1CN(C)S(=O)(=O)c1ccccc1	2
COc1ccc(NC(=O)N(C)C[C@@H]2Oc3c(NS(=O)(=O)c4ccc(OC)cc4)cccc3C(=O)N([C@H](C)CO)C[C@@H]2C)cc1	15
COc1ccc(CN(C)C[C@H]2Oc3c(NS(=O)(=O)c4cn(C)cn4)cccc3C(=O)N([C@H](C)CO)C[C@@H]2C)cc1	1
Cc1cc(Cl)ccc1OC(C)C(=O)Nc1cccc(NC(=O)c2ccco2)c1 (stereo unspecified)	42
C[C@H](CO)N1C[C@H](C)[C@H](CN(C)CC2CCCCC2)Oc2ccc(NS(=O)(=O)c3ccc(Cl)cc3)cc2C1=O	34
C[C@@H]1CN([C@H](C)CO)C(=O)c2cc(NC(=O)Nc3ccc(C(F)(F)F)cc3)ccc2O[C@@H]1CN(C)C(=O)NC1CCCCC1	?
C[C@@H]1CN([C@H](C)CO)C(=O)Cc2cc(NC(=O)Nc3ccccc3)ccc2O[C@H]1CN(C)S(=O)(=O)c1cccs1	3
Cc1ccc(S(=O)(=O)Nc2ccc3c(c2)C(=O)N([C@H](C)CO)C[C@H](C)[C@H](CN(C)C(=O)Nc2ccc(C(F)(F)F)cc2)O3)cc1	40
C[C@@H]1CN([C@@H](C)CO)C(=O)c2cc(NC(=O)Cc3ccccc3)ccc2O[C@H]1CN(C)C(=O)Nc1ccccc1	-17
Cc1ccc(S(=O)(=O)Nc2ccc3c(c2)C(=O)N([C@H](C)CO)C[C@@H](C)[C@H](CN(C)S(=O)(=O)c2ccc(Cl)cc2)O3)cc1	0
N#CC1=C(SCC(=O)Nc2cccc3cccnc23)NC(=O)C(C#N)C12CCCCC2 (stereo unspecified)	10
Cc1noc(C)c1NC(=O)Nc1ccc2c(c1)C(=O)N([C@@H](C)CO)C[C@H](C)[C@H](CN(C)Cc1ccc(C(F)(F)F)cc1)O2	19
CC1CCc2c(sc3ncnc(SCCO)c23)C1 (stereo unspecified)	24
C=C1C2=C(O[C@H](/C(C)=C/C(C)CC(C)CC)[C@@H](O)[C@@H]2O)C(=O)N1OC (stereo partly specified)	107*
C[C@H]1CN([C@@H](C)CO)C(=O)c2cc(NS(=O)(=O)c3ccc(F)cc3)ccc2O[C@@H]1CN(C)S(=O)(=O)c1cccs1	14
Cc1ccc(S(=O)(=O)N(C)C[C@@H]2Oc3c(NC(=O)C4CCCCC4)cccc3C(=O)N([C@@H](C)CO)C[C@@H]2C)cc1	8
COc1ccc(-n2c(=S)[nH]c3cc(C(=O)NC4CCCC(C)C4C)ccc3c2=O)c(OC)c1 (stereo unspecified)	87*
Cc1nc2sc3c(c2c2nnc(SCC(=O)c4ccccc4)n12)CCCC3	-12
C[C@@H]1CN([C@@H](C)CO)C(=O)c2cccc(NC(=O)Nc3ccc(C(F)(F)F)cc3)c2O[C@@H]1CN(C)CC1CCCCC1	95*
C[C@H](CO)N1C[C@H](C)[C@@H](CN(C)Cc2ccc(C(F)(F)F)cc2)Oc2ccc(NS(=O)(=O)c3ccc(F)cc3)cc2C1=O	35
Cc1ccc([N+](=O)[O-])cc1NC(=O)CN(Cc1ccccc1)S(C)(=O)=O	-19
COc1nc(NCCc2ccc(OC)c(OC)c2)nc(OC)n1	1
Cc1ccc(S(=O)(=O)N(C)C[C@H]2OCCCC[C@@H](C)Oc3ccc(NS(=O)(=O)c4c(C)noc4C)cc3C(=O)N([C@H](C)CO)C[C@@H]2C)cc1	23
C[C@H]1CN([C@@H](C)CO)C(=O)c2cccc(NS(=O)(=O)c3ccc(F)cc3)c2O[C@H]1CN(C)S(=O)(=O)c1ccc(Cl)cc1	19
COc1ccc(OC(C)C(=O)Nc2ccncc2)cc1 (stereo unspecified)	20
C[C@@H]1CN([C@@H](C)CO)C(=O)Cc2cc(NS(=O)(=O)c3cn(C)cn3)ccc2O[C@@H]1CN(C)Cc1ccncc1	-7
CCn1c(SCC(=O)N2c3ccccc3Sc3ccccc32)nnc1-c1ccncc1	-2
C[C@H]1CN([C@@H](C)CO)C(=O)Cc2cc(NC(=O)C3CCCCC3)ccc2O[C@H]1CN(C)S(=O)(=O)c1ccc(F)cc1	7
C[C@H]1CN([C@@H](C)CO)C(=O)c2cccc(NC(=O)C3CCOCC3)c2O[C@H]1CN(C)CC1CC1	-19
COc1cccc(NC(=O)CC2NC3CCCCC3NC2=O)c1 (stereo unspecified)	-12
Cc1ccc2nc(-c3cccc(NC(=O)COc4ccccc4C)c3)oc2c1	41

Copied from the listing, 6 compounds:
SMILES	NOMO-1 viab
C[C@@H]1CN([C@@H](C)CO)C(=O)c2cc(NC(=O)Nc3ccc(C(F)(F)F)cc3)ccc2O[C@@H]1CN(C)S(C)(=O)=O	2
C[C@@H]1CN([C@H](C)CO)C(=O)Cc2cc(NC(=O)Nc3ccc(F)cc3)ccc2O[C@@H]1CN(C)C	10
Cc1ccc(S(=O)(=O)Nc2cccc3c2O[C@H](CN(C)C(=O)Nc2ccc(C(F)(F)F)cc2)[C@H](C)CN([C@H](C)CO)C3=O)cc1	90*
O=C(Cn1cc(C(=O)c2ccccc2F)c2ccccc21)NCC1CCCO1 (stereo unspecified)	0
Cc1ccc2ccc(S(=O)(=O)NCc3ccccn3)cc2c1	6
C[C@@H]1CN([C@H](C)CO)C(=O)c2cc(NS(=O)(=O)c3ccc(Cl)cc3)ccc2O[C@H]1CN(C)S(=O)(=O)c1ccccc1	2

Carrying on:
SMILES	NOMO-1 viab
COc1ccc(NC(=O)Nc2cccc3c2O[C@@H](CN(C)S(=O)(=O)c2ccc(OC)cc2)[C@@H](C)CN([C@H](C)CO)C3=O)cc1	1
C=C1C(=O)OC2/C=C(\CO)C(OC(C)=O)C/C=C(/C)CC(OC(=O)/C(C)=C\CO)C12 (stereo unspecified)	121*
O=C(Nc1ccccc1C(F)(F)F)C1c2ccccc2Oc2ccccc21	13
CC(C)NC(=O)Nc1cccc2c1O[C@@H](CN(C)S(=O)(=O)c1ccc(Cl)cc1)[C@@H](C)CN([C@@H](C)CO)C2=O	9
Cc1cc(C)c2c(c1C(=O)Nc1cccc(C(F)(F)F)c1)CC(C)(C)C2=O	75
CCn1c(SCC(=O)Nc2ccc(C(N)=O)cc2)nnc1-c1ccco1	-13
Cn1nnnc1SCC(=O)Nc1ccc([N+](=O)[O-])cc1	57
COc1ccc(NC(=O)C2CCCN2S(=O)(=O)c2ccc(F)cc2)cc1 (stereo unspecified)	-12
COc1ccc(S(=O)(=O)N(C)C[C@@H]2OCCCC[C@@H](C)Oc3ccc(NS(=O)(=O)c4cn(C)cn4)cc3C(=O)N([C@H](C)CO)C[C@@H]2C)cc1	7
COc1ccc(CN(C)C[C@@H]2Oc3ccc(NS(=O)(=O)c4ccccc4)cc3CC(=O)N([C@@H](C)CO)C[C@@H]2C)cc1	2
Cc1ccc(S(=O)(=O)Nc2ccc3c(c2)C(=O)N([C@@H](C)CO)C[C@H](C)[C@@H](CN(C)Cc2ccc(-c4ccccc4)cc2)O3)cc1	59
CN(c1ccc(OCC(=O)O)cc1)S(=O)(=O)c1ccc(F)cc1	19
COc1ccc(CN(C)C[C@H]2Oc3ccc(NS(C)(=O)=O)cc3C(=O)N([C@@H](C)CO)C[C@@H]2C)cc1	13
COc1ccc(S(=O)(=O)Nc2ccc3c(c2)C(=O)N([C@H](C)CO)C[C@@H](C)[C@@H](CN(C)S(=O)(=O)c2ccc(C)cc2)O3)cc1	8
C[C@@H]1CN([C@H](C)CO)C(=O)c2cccc(NC(=O)c3nc4ccccc4s3)c2O[C@@H]1CN(C)Cc1ccncc1	31
C[C@H](CO)N1C[C@H](C)[C@@H](CN(C)S(=O)(=O)c2ccc(Cl)cc2)Oc2ccc(NS(C)(=O)=O)cc2C1=O	23
COc1ccc(-c2nc3cc(NC(=O)COc4ccc([N+](=O)[O-])cc4)ccc3o2)cc1Cl	22
CC(C)(c1ccc(NS(=O)(=O)C(F)(F)F)cc1)c1ccc(C(C)(C)c2cccc(NS(=O)(=O)C(F)(F)F)c2)cc1	15
C[C@H]1CN([C@@H](C)CO)C(=O)Cc2cc(NC(=O)Cc3cn(C)c4ccccc34)ccc2O[C@@H]1CN(C)S(=O)(=O)c1ccc(F)cc1	0
CC(C)(CO)NCc1ccc(-c2ccccc2)o1	-12
CC(C)[C@H]1COC(c2cccc(C3=N[C@@H](C(C)C)CO3)n2)=N1	25
C[C@H](CO)N1C[C@H](C)[C@H](CN(C)C)Oc2c(NS(=O)(=O)c3cn(C)cn3)cccc2C1=O	-13
O=C(CSc1nc(O)cc(=O)n1-c1ccccc1)N1CCc2ccccc21	-17
Cc1onc(-c2c(F)cccc2Cl)c1C(=O)NCC1COc2ccccc2O1 (stereo unspecified)	22
COc1ccc(NC(=O)CN(c2ccc(F)c(Cl)c2)S(C)(=O)=O)cc1Cl	38
CSc1ccccc1NC(=O)C(C)n1nc([N+](=O)[O-])c(Br)c1C (stereo unspecified)	37
CCOC(=O)c1cnc2oc3ccc(O)cc3c2c1-c1ccccc1	28
Cc1ccc(S(=O)(=O)Nc2ccc3c(c2)CC(=O)N([C@H](C)CO)C[C@H](C)[C@H](CN(C)CC2CC2)O3)cc1	25
C[C@@H]1CN([C@H](C)CO)C(=O)Cc2cc(NC(=O)Nc3cccc4ccccc34)ccc2O[C@H]1CN(C)C(=O)Nc1ccc(C(F)(F)F)cc1	63
COc1ccc(S(=O)(=O)N(C)C[C@@H]2Oc3c(NC(=O)c4ccncc4)cccc3C(=O)N([C@H](C)CO)C[C@@H]2C)cc1	16
CC(C)c1cc(Br)ccc1NC(=O)CSc1n[nH]c(-c2ccc(Cl)cc2)n1	8
COc1ccc(CN(C)C[C@H]2Oc3ccc(NS(=O)(=O)c4cn(C)cn4)cc3C(=O)N([C@@H](C)CO)C[C@@H]2C)cc1	-12
Cc1ccccc1-c1nnc(SCC(=O)Nc2cc(C(F)(F)F)ccc2N2CCOCC2)o1	18
Cc1ccc(F)cc1NC(=O)CSc1nnnn1-c1ccccc1	21
Cc1ccc(Cn2nc(C(=O)Sc3cccc(Cl)c3Cl)cc2C)cc1	69
C[C@@H]1CN([C@H](C)CO)C(=O)c2cccc(N(C)C)c2O[C@H]1CN(C)S(=O)(=O)c1ccc(F)cc1	12
C[C@@H]1CN([C@@H](C)CO)C(=O)c2cc(NC(=O)Nc3ccc4c(c3)OCO4)ccc2O[C@H]1CN(C)S(=O)(=O)c1ccccc1	21
Cc1noc(C)c1S(=O)(=O)Nc1ccc2c(c1)CC(=O)N([C@H](C)CO)C[C@H](C)[C@H](CN(C)Cc1ccc(Oc3ccccc3)cc1)O2	47
C[C@H](CO)N1C[C@H](C)[C@@H](CN(C)S(=O)(=O)c2ccc(F)cc2)Oc2c(NS(=O)(=O)c3ccc(Cl)cc3)cccc2C1=O	47
CNC[C@H]1Oc2c(NS(=O)(=O)c3ccc(OC)cc3)cccc2C(=O)N([C@@H](C)CO)C[C@@H]1C	-2
COc1ccc(NC(=O)N(C)C[C@@H]2Oc3ccc(NC(=O)CCN4CCOCC4)cc3CC(=O)N([C@@H](C)CO)C[C@@H]2C)cc1	-5
C[C@@H]1CCCCO[C@H](CN(C)C(=O)Nc2ccc3c(c2)OCO3)[C@@H](C)CN([C@H](C)CO)C(=O)c2cc(NC(=O)c3ccccc3)ccc2O1	4
CCO/C([O-])=N\c1c[n+](N2CCOCC2)no1	26
C[C@H]1CN([C@@H](C)CO)C(=O)c2cc(NC(=O)Cc3cn(C)c4ccccc34)ccc2O[C@H]1CN(C)CC1CC1	19
CC(=O)Oc1ccc(N(C(C)=O)S(=O)(=O)c2ccc3ccccc3c2)cc1	38
C[C@@H]1CN([C@H](C)CO)C(=O)Cc2cc(NS(=O)(=O)c3ccccc3)ccc2O[C@@H]1CN(C)Cc1ccc(Cl)c(Cl)c1	85*
COc1cc(F)ccc1S(=O)(=O)NC1CC(C)(C)NC(C)(C)C1	13
CCOC(=O)CSc1nnc(Cn2nnc3ccccc32)n1-c1ccc(F)cc1	5

4 entries from above, reformatted.
SMILES | NOMO-1 viab
C[C@H](CO)N1C[C@H](C)[C@@H](CN(C)S(=O)(=O)c2ccc(F)cc2)Oc2c(NS(=O)(=O)c3ccc(Cl)cc3)cccc2C1=O | 47
CNC[C@H]1Oc2c(NS(=O)(=O)c3ccc(OC)cc3)cccc2C(=O)N([C@@H](C)CO)C[C@@H]1C | -2
COc1ccc(NC(=O)N(C)C[C@@H]2Oc3ccc(NC(=O)CCN4CCOCC4)cc3CC(=O)N([C@@H](C)CO)C[C@@H]2C)cc1 | -5
C[C@@H]1CCCCO[C@H](CN(C)C(=O)Nc2ccc3c(c2)OCO3)[C@@H](C)CN([C@H](C)CO)C(=O)c2cc(NC(=O)c3ccccc3)ccc2O1 | 4

(more compounds)
SMILES	NOMO-1 viab
C[C@@H]1CN([C@@H](C)CO)C(=O)Cc2cc(NS(=O)(=O)c3ccc(F)cc3)ccc2O[C@@H]1CN(C)Cc1ccc(Cl)c(Cl)c1	96*
C[C@@H]1CN([C@H](C)CO)C(=O)c2cc(NC(=O)Cn3cnnn3)ccc2O[C@H]1CN(C)S(=O)(=O)c1cn(C)cn1	-8
Cc1nc(C)c(C(=O)C2C(=O)C(=O)N(CCCN3CCOCC3)C2c2ccncc2)s1 (stereo unspecified)	0
COc1cc(CNC23CC4CC(C)(CC(C)(C4)C2)C3)cc(Br)c1OCC(N)=O	18
CCN(CC(=O)Nc1ccccc1OC)S(=O)(=O)c1ccc2ccccc2c1	-4

This is a subset (hit frequency here may not be typical).
